Bioassay records as filed in PubChem.
FGF22 binding = FGF22 (human) thermal shift binding | recombinant FGF22 thermal shift, SYPRO orange fluorescence; percent of sucrose octasulfate shift, DMSO zero | calls only at 9.99 µM | 340,000 tested, 1.5% active | AID 651658;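 active means melting point raised past a set limit in the mean and every replicate; inconclusive means no clear call; three in four hits are not shown here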
Target sequence (Q9HCT0 whole entry, looked up): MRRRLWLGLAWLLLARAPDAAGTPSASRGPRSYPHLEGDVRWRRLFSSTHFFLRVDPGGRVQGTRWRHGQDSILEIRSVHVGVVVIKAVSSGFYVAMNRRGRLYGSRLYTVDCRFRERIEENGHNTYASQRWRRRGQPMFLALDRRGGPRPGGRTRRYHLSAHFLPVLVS
MLL AF4-AF9 inh = MLL-AF4/AF9 protein interaction inhibition; inhibition, % at 10 µM; AlphaScreen, biotin-AF4 peptide binding to FLAG-AF9; 350,000 tested, 0.47% active; P42568;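 active means every replicate reaching a set inhibition limit, whatever the replicate mean, cut at about 25% in these data; inconclusive means mean inhibition reaches that limit but some replicates miss it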;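 further: 0% = plate neutral control median and 100% = total signal loss; the record names both 10 and 1 µM as test concentration; the first replicate is given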
Target sequence (P42568 whole entry, looked up): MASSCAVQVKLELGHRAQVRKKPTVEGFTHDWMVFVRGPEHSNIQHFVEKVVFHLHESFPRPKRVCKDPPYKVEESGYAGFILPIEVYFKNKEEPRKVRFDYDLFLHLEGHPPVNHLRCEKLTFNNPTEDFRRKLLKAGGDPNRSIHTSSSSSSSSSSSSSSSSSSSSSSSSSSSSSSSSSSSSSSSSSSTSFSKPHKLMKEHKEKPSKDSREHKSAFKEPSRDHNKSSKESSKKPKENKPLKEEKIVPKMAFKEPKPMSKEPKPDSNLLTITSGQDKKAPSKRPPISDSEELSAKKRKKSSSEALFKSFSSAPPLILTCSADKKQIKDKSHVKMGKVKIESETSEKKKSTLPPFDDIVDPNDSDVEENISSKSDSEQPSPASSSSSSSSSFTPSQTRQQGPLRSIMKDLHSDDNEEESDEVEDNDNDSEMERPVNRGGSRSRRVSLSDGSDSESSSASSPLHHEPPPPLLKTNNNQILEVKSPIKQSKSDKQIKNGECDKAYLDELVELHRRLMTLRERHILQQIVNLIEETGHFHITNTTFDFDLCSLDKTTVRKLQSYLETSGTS
Ecoli rRNA inh = inhibits bacterial ribosomal RNA function over humanized ribosomes; E. coli WT GFP vs humanized-ribosome RFP mutants, fluorescence, 24 h; stronger effect = lower value; DMSO median 0, no signal -100; GFP signal change (wild-type ribosome), % (no concentration beside the values); 350,000 tested, 1.6% active; AID 720706;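 active means significant combined selectivity score with lowered wild-type GFP, culture density cut under 30%, mutant RFP and density less affected; inactive means any of these conditions unmet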; further: one replicate is shown; some compounds called inactive have numbers as strong as hits
Ecoli rRNA inh OD600 = also measured in Ecoli rRNA inh; calls as there; OD600 change, %; measured here: OD600 growth;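 optical density of the mix in the first replicate; 0 = DMSO median and -100 = no signal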
Ecoli rRNA inh RFP = recorded beside Ecoli rRNA inh, whose call it bears; RFP signal change, %; measured here: RFP humanized mutant strains;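 first replicate; 0 = DMSO median and -100 = no signal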
* = called active by the depositor; i = inactive; ? = inconclusive; & = joins results of further samples.

SMILES	FGF22 binding	MLL AF4-AF9 inh	Ecoli rRNA inh	Ecoli rRNA inh OD600	Ecoli rRNA inh RFP
C[C@H](CO)N1C[C@H](C)[C@@H](CN(C)C(=O)Cc2cccnc2)Oc2ncc(/C=C/c3ccccc3)cc2C1=O	i	-4.9	-5	-10	-2.1
C[C@H](CO)N1C[C@H](C)[C@@H](CN(C)CC2CC2)Oc2cc(C#CC(C)(C)O)ccc2S1(=O)=O	i	-2.5	4	0	-1.2
COCC#Cc1ccc2c(c1)O[C@@H](CN(C)S(=O)(=O)c1ccc(C)cc1)[C@@H](C)CN([C@H](C)CO)S2(=O)=O	i	2.5	-3	-8	3.3
CO[C@@H]1CN(C)C(=O)c2cc(NC(=O)c3ccno3)ccc2OC[C@@H](C)NC[C@@H]1C	i	-3.8	7	2	-0.8
C[C@H]1CN([C@@H](C)CO)S(=O)(=O)c2ccc(C#CC3CC3)cc2O[C@@H]1CN(C)Cc1ccccn1	i	7.5	-47	-70	0.9
CO[C@H]1CN(C)C(=O)c2ccc(NS(=O)(=O)c3ccc(Cl)cc3)cc2OC[C@H](C)NC[C@H]1C	i	-12	2	0	-2.0
CCN1CCN(S(=O)(=O)c2ccc(Cl)c(C(=O)NCc3nc4ccccc4[nH]3)c2)CC1	i	3.4	3	2	5.3
CCC(=O)Nc1ccc2c(c1)C(=O)N(C)[C@@H]1CC[C@@H](CC(=O)NCc3ccccc3)O[C@@H]1CO2	i	0.9	0	-1	-3.1
O=C1NC[C@@H](CCCCN2CCN(CC3CCCCC3)C(=O)C2=O)N(CC2CCCCC2)C1=O	i	-0.7	2	6	0.4
Cc1noc(C)c1S(=O)(=O)N(C)C[C@H]1OCCCC[C@@H](C)Oc2ccc(NC(=O)Nc3cccc4ccccc34)cc2C(=O)N([C@@H](C)CO)C[C@@H]1C	i	-1.6	-2	4	-3.0
CC(C)NC1(C(N)=O)CCNCC1	i	-2.1	17	2	3.9
Nc1cc(N)nc(SCC(=O)NC2CCCCCCC2)n1	i	-2.3	1	6	-0.8
O=C(Nc1ccccc1)N1CCCCN2[C@H](CO)[C@H](c3ccc(C4=CCCCC4)cc3)[C@@H]2C1	i	-6.2	-10	-37	19
Cc1ccc(S(=O)(=O)Nc2cccc3c2O[C@H](CN(C)S(=O)(=O)c2cccs2)[C@@H](C)CN([C@@H](C)CO)C3=O)cc1	i	-0.7	-2	2	0.2
CCN(CC)S(=O)(=O)c1ccc(N2CCOCC2)c(NC(=O)c2nn(C)c(=O)c3ccccc23)c1	i	-2.2	9	18	-2.3

Whole records, quoted from the list:
O=C(Nc1ccccc1)N1CCCCN2[C@H](CO)[C@H](c3ccc(C4=CCCCC4)cc3)[C@@H]2C1 as listed: FGF22 binding = i; MLL AF4-AF9 inh = -6.2; Ecoli rRNA inh = -10; Ecoli rRNA inh OD600 = -37; Ecoli rRNA inh RFP = 19
CCC(=O)Nc1ccc2c(c1)C(=O)N(C)[C@@H]1CC[C@@H](CC(=O)NCc3ccccc3)O[C@@H]1CO2 as listed: FGF22 binding = i; MLL AF4-AF9 inh = 0.9; Ecoli rRNA inh = 0; Ecoli rRNA inh OD600 = -1; Ecoli rRNA inh RFP = -3.1
CO[C@H]1CN(C)C(=O)c2ccc(NS(=O)(=O)c3ccc(Cl)cc3)cc2OC[C@H](C)NC[C@H]1C as listed: FGF22 binding = i; MLL AF4-AF9 inh = -12; Ecoli rRNA inh = 2; Ecoli rRNA inh OD600 = 0; Ecoli rRNA inh RFP = -2.0

Continued:
SMILES	FGF22 binding	MLL AF4-AF9 inh	Ecoli rRNA inh	Ecoli rRNA inh OD600	Ecoli rRNA inh RFP
C[C@@H]1CN([C@H](C)CO)C(=O)c2cc(NS(=O)(=O)c3cccs3)ccc2O[C@H]1CN(C)S(=O)(=O)c1cn(C)cn1	i	-0.9	4	2	-2.3
O=C(C[C@H]1C[C@@H]2c3cc(NC(=O)c4cccnc4)ccc3O[C@@H]2[C@H](CO)O1)NCc1cc(F)ccc1F	i	3.3	-1	-1	-1.2
CCOc1ccc2oc(C(=O)OCC(=O)N(CC(C)C)c3c(N)n(Cc4ccccc4)c(=O)[nH]c3=O)c(C)c2c1	i	-1.8	5	4	-0.7
O=C(Nc1ccc2c(c1)[C@H]1C[C@H](CC(=O)N3CCCCC3)O[C@@H](CO)[C@H]1O2)c1cccnc1	i	1.5	4	6	-2.9
CC(=O)Nc1cncc(-c2cccc(N(C)C)c2)n1	i	-0.2	7	13	0.9
CC(C)C#Cc1cnc2c(c1)C(=O)N([C@@H](C)CO)C[C@@H](C)[C@H](CN(C)S(=O)(=O)c1cn(C)cn1)O2	i	-2.6	1	2	0.3
C[C@@H]1CN([C@@H](C)CO)C(=O)Cc2cc(NS(=O)(=O)c3ccc(Cl)cc3)ccc2O[C@H]1CN(C)S(=O)(=O)c1ccc(F)cc1	i	0.0	-4	-11	2.0
CO[C@@H](CN(C)Cc1cc(F)ccc1F)[C@@H](C)CN(C(=O)Nc1ccc(C(F)(F)F)cc1)[C@H](C)CO	i	2.5	-56	-81	-14
Cc1cc(C)c2c(=N)c3ccccc3n(CCCCCCCCn3c4ccccc4c(=N)c4c(C)cc(C)nc43)c2n1	i	?	-59	-74	-17
COC(=O)c1ccc(CNC(=O)C(C)N=C2NS(=O)(=O)c3ccccc32)cc1 (stereo not given)	i	-7.2	10	16	0.2
C[C@@H]1CN([C@@H](C)CO)C(=O)c2cccc(N(C)C)c2O[C@@H]1CN(C)S(=O)(=O)c1ccccc1	i	-0.9	0	0	-1.8
COc1ccc2c3c([nH]c2c1)[C@@H](CO)N(Cc1ccccc1Cl)CC31CN(C(=O)C2CC2)C1	i	-3.7	-8	-17	-1.6
Cc1ccc(S(=O)(=O)N2CCOCC2)cc1C(=O)OCC(=O)Nc1ccc(Cl)cn1	i	-1.1	-5	-2	-1.3
COc1cc(C2c3cc4c(cc3OC(Nc3ccc(C(=O)O)cc3)C2C)OCO4)cc(OC)c1OC (stereo not given)	i	-2.0	-1	4	4.4
CC(=O)N1CC(=O)N2[C@@H](CO)[C@H](c3ccc(C#CC(C)C)cc3)[C@@H]2C1	i	-0.5	4	9	-4.6
Cc1nc2c(OCc3ccc(C#N)cc3)cccn2c1N(C)Cc1cccs1	i	0.7	10	1	0.3
COc1ccc(S(=O)(=O)N(C)C[C@@H]2Oc3ccc(NC(=O)c4ccncc4)cc3CC(=O)N([C@@H](C)CO)C[C@H]2C)cc1	i	0.2	0	-4	-0.2
C[C@@H]1CN([C@@H](C)CO)C(=O)c2cc(NC(=O)Nc3cccc4ccccc34)ccc2O[C@@H]1CN(C)S(=O)(=O)c1ccc(Cl)cc1	i	0.1	1	4	-1.4
C[C@H]1CN([C@@H](C)CO)C(=O)c2cccc(NC(=O)C3CCCCC3)c2O[C@@H]1CN(C)C(=O)Nc1ccc(C(F)(F)F)cc1	i	-0.3	-1	3	-2.2
CC(C)Nc1nc(NCc2ccccc2)c2sccc2n1	i	6.1	-68	-71	-30
COC(=O)C1CCN(C2CN(C3CCCCC3)S(=O)(=O)C2)CC1 (stereo not given)	i	-0.6	5	16	16
Cn1c2ccsc2c2ncn(Cc3ccc(F)cc3)c(=O)c21	i	-0.8	-7	-10	-0.4
O=C(c1cnccn1)N1C[C@H]2[C@@H](c3ccccc31)[C@@H](CO)N2Cc1ccc2c(c1)OCO2	i	-0.7	-2	8	-3.5
N#C[C@@H]1N[C@@H](CO)[C@H]1c1ccc(C#CC2CCCC2)cc1	i	-0.1	0	1	0.8
C[C@@H]1CN([C@H](C)CO)C(=O)c2cc(NC(=O)Nc3ccc4c(c3)OCO4)ccc2O[C@@H]1CN(C)Cc1ccc(Cl)c(Cl)c1	i	3.0	-1	-31	-0.3
COc1ccc(S(=O)(=O)Nc2cccc3c2O[C@H](CN(C)Cc2ccccc2)[C@H](C)CN([C@@H](C)CO)C3=O)cc1	i	-0.3	-5	10	2.0
O=C(Nc1ccccc1)N1C[C@@H]2[C@H](c3ccccc31)[C@H](CO)N2C(=O)c1cccnc1	i	-14	1	9	-0.6
Cc1ccc(S(=O)(=O)Nc2ccc3c(c2)CC(=O)N([C@@H](C)CO)C[C@@H](C)[C@H](CN(C)S(=O)(=O)c2ccc(C)cc2)O3)cc1	i	-1.6	-3	-10	3.2
COc1ccc(S(=O)(=O)N(C)C[C@H]2Oc3ccc(NC(=O)Nc4ccc(F)cc4)cc3C(=O)N([C@H](C)CO)C[C@H]2C)cc1	i	1.2	-1	-17	-4.8
CCC(=Cc1ccccc1O)c1ccncc1	i	-0.8	-17	-13	-0.2
C[C@@H]1CN([C@H](C)CO)C(=O)c2cc(NC(=O)CCN3CCOCC3)ccc2O[C@@H]1CN(C)C(=O)Nc1ccc2c(c1)OCO2	i	-2.1	2	7	-1.1
CCCNC(=O)N1[C@@H]2CN(C)c3ccccc3[C@@H]2[C@@H]1CO	i	-1.3	-1	4	-1.7
C[C@H](CO)N1C[C@H](C)[C@@H](CN(C)C(=O)Nc2ccc3c(c2)OCO3)Oc2c(NS(C)(=O)=O)cccc2C1=O	i	-2.2	2	20	1.2
C[C@H](CO)N1C[C@H](C)[C@@H](CN(C)Cc2ccc(Cl)c(Cl)c2)Oc2ccc(NC(=O)Nc3cccc4ccccc34)cc2CC1=O	i	2.1	5	2	1.8
CC(C)NC(=O)N(C)C[C@@H]1Oc2cc(C3=CCCC3)ccc2S(=O)(=O)N([C@H](C)CO)C[C@H]1C	i	-9.1	0	-9	-0.3
CN(C)CC(=O)N[C@H]1C=C[C@H](CC(=O)NCCN2CCCCC2)O[C@H]1CO	i	-1.0	3	4	-1.6
C[C@H](CO)N1C[C@H](C)[C@H](CN(C)C(=O)NC2CCCCC2)Oc2ccc(NC(=O)Cc3cn(C)c4ccccc34)cc2C1=O	i	0.7	-2	-2	1.0
Cc1ccc(-c2cnc3c(c2)C(=O)N([C@@H](C)CO)C[C@@H](C)[C@H](CN(C)CC2CCCC2)O3)cc1	i	-3.0	9	16	1.7
O=C(Nc1ccc2c(c1)[C@@H]1C[C@@H](CC(=O)N3CCc4ccccc4C3)O[C@@H](CO)[C@@H]1O2)C1CCOCC1	i	-3.0	4	3	0.0
C[C@H](NC(=O)C[C@H]1C[C@@H]2c3cc(NC(=O)NC4CCCC4)ccc3O[C@@H]2[C@H](CO)O1)c1ccccc1	i	-6.1	2	5	-3.5
CCOC(=O)Nc1ccc2c(c1)C(=NO)c1ccccc1-2	i	9.3	-68	-81	-21
O=C(NCc1ccccc1Cl)[C@@H]1[C@@H](CO)[C@@H]2Cn3c(cccc3=O)[C@@H]2N1C(=O)C1CCOCC1	i	-0.7	-1	7	-1.0
C[C@H]1CCCCO[C@H](CN(C)Cc2ccc(C(=O)O)cc2)[C@@H](C)CN([C@@H](C)CO)C(=O)c2cc(NC(=O)Nc3cccc4ccccc34)ccc2O1	i	2.9	-4	-2	1.8
CO[C@H]1CN(C)C(=O)c2ccc(NC(=O)Cc3ccccc3)cc2OC[C@H](C)N(C(=O)c2ccccc2F)C[C@H]1C	i	1.1	4	-2	4.2
C[C@H](CO)N1C[C@H](C)[C@H](CN(C)C(=O)Nc2cccc3ccccc23)Oc2ccc(NC(=O)c3ccncc3)cc2CC1=O	i	-1.0	-3	-14	-1.7
CO[C@H]1CN(C)C(=O)c2cc(NC(=O)C3CCC3)ccc2OC[C@@H](C)N(Cc2ccccn2)C[C@@H]1C	i	-1.3	0	3	1.9
COc1ccc(S(=O)(=O)Nc2cccc3c2O[C@H](CN(C)C(=O)Nc2c(C)noc2C)[C@@H](C)CN([C@@H](C)CO)C3=O)cc1	i	-1.1	5	8	-0.2
CN1CCN(C(=O)C[C@H]2C[C@H]3c4cc(NC(=O)c5ccc6c(c5)OCO6)ccc4O[C@H]3[C@H](CO)O2)CC1	i	-1.7	0	7	1.6
COc1ccc2c(c1)CCCC2=O	i	-3.7	7	-2	2.2
C[C@@H]1CN([C@@H](C)CO)C(=O)c2cc(NS(=O)(=O)c3ccccc3)ccc2O[C@@H]1CN(C)C(=O)Nc1ccc2c(c1)OCO2	i	0.4	2	-1	1.3
COC(=O)C[C@H]1C[C@H]2c3cc(NC(=O)CC4CC4)ccc3O[C@H]2[C@H](CO)O1	i	-1.1&-3.6	6&3	4&8	-0.3&1.2
O=C(C[C@@H]1C=C[C@H](NC(=O)Nc2ccc(F)cc2)[C@H](CO)O1)NCCN1CCCC1	i	4.9	2	-1	-1.2
C[C@H](CO)N1C[C@H](C)[C@@H](CN(C)C)Oc2ccc(NC(=O)Cn3cnnn3)cc2CC1=O	i	-1.5	3	14	4.2
Cc1ccc(S(=O)(=O)N(C)C[C@H]2Oc3c(NC(=O)Nc4ccc(C(F)(F)F)cc4)cccc3C(=O)N([C@H](C)CO)C[C@H]2C)cc1	i	1.9	4	2	-1.4

This is a subset. The share of hits here may be higher or lower than overall.
